Mtb hypoxia inh: PubChem AID 1159583; M. tuberculosis hypoxia-regulated fluorescent reporter, fluorescence; actives 0.1% (n = 300,000); fluorescence inhibition, % (concentration not given with the values);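 active = 35 to 45% if threefold the growth effect, above 45% if 1.5-fold the growth effect; inactive = the rest, general growth blockers included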;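 also: wells of about 50 µL received 100 nL stock; 0% = vehicle wells and 100% = reference inhibitor wells; whole bacteria with a GFP reporter of the hypoxia response; strong numbers were not always called active; many hits fall short of the cut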
Sa ugtP lethal: growth inhibition of ugtP-null S. aureus, primary screen, RN4220 ugtP deletion, OD600; 16 h; some inactives read as strong as hits; growth inhibition, % (test concentration not listed); actives 0.54% (n = 330,000); AID 1259309, 2017;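 active = z-score under -3 and OD600 up to 0.15 on both plates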;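 also: plate controls were untreated wells for no effect and antibiotic for full effect; wells of about 80 µL received 100 nL stock; the first replicate is given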
BJeLR lethal: MLPCN primary cell-based screen for lethality selective to Ras in HRASV12 cells; BJeLR (HRASV12) viability, CellTiter-Glo ATP luminescence, 48 h; reference of the scale not given here; inhibition, % (no concentration beside the values); actives 0.17% (n = 300,000); AID 1554, 2009;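 active = replicate mean above 50%; inconclusive = above 50% but judged a plate artefact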;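 also: 50 nL library stock added to about 25 µL; numbers are from one replicate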
PrP 5UTR inh: inhibition of PrP 5' UTR reporter expression; cell-based PrP 5' UTR mRNA reporter, plate reader; actives 0.35% (n = 340,000); inhibition, % (concentration not given with the values); AID 488862, 2010;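 active = every replicate at 50% or more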;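 also: 0 = median of the neutral control wells; tested in H4 reporter cells; numbers are from one replicate; inactives centre near -14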
Sa RN4220 lethal: growth inhibition of S. aureus RN4220, primary screen, OD600; 16 h; inhibition, % (concentration not given with the values); actives 0.33% (n = 330,000); AID 1259311, 2017;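 active = z-score of -3 or lower and OD600 up to 0.18 on both plates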;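 also: plate controls were untreated cells for no effect and reference antibiotic for full effect; stock transfer was 100 nL into about 80 µL; one replicate is shown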
Bead autofluor: compound fluorescence in toxin protease inhibitor counterscreen | compound autofluorescence counterscreen, microsphere flow cytometry; hits give high values | fluorescence intensity (no concentration beside the values) | actives 3.1% (n = 360,000);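 active = at least 3 SD above the mean of all compounds, about 16000 in these data; inconclusive = too few beads counted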;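 also: 100 nL of 1 mM stock went into each well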
Mtb hypoxia inh growth: also measured in Mtb hypoxia inh; calls as there; growth inhibition, %; measured here: M. tuberculosis growth (absorbance);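 0% = vehicle and 100% = reference antibiotic; read after six days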
* = called active by the depositor; ? = inconclusive; · = no result given.

SMILES	Mtb hypoxia inh	Mtb hypoxia inh growth	Sa ugtP lethal	BJeLR lethal	PrP 5UTR inh	Sa RN4220 lethal	Bead autofluor
COCCCN1C(=O)C(=O)C(=C(O)c2ccc(OC)cc2)C1c1cccc(OC)c1 (configuration not stated)	9	6	2	·	·	5.0	·
CC(Nc1n[nH]c(=S)[nH]c1=O)C(=O)OCc1ccccc1 (configuration not stated)	-1	-5	15	2	-9	6.7	?
CCOC(=O)N1CCN(S(=O)(=O)c2ccc3c(c2)CCN3C(=O)C2CCC2)CC1	·	·	4	3	-16	-0.1	2423
COc1ccc(-c2nnn(CC(=O)N(CCO)C(C(=O)NC3CCCC3)c3ccc(F)cc3)n2)cc1 (configuration not stated)	4	7	3	-2	-31	1.8	20710*
Cn1ccc(C(=O)NC(=S)Nc2ccc([N+](=O)[O-])cc2O)n1	-6	-3	4	·	-45	16	5848
COc1cccc(C(=O)NC2CC3CCCC(C2)N3Cc2ccc(C)cc2)c1 (configuration not stated)	4	-4	-1	-4	-32	1.6	4146
COCc1c(C(=O)NN=Cc2ccccn2)nnn1-c1nonc1N	10	-2	-3	·	·	0.2	·
Cc1cccc(N(C(=O)c2csnn2)C(C(=O)NC2CCCC2)c2ccncc2)c1 (configuration not stated)	6	-5	4	4	12	3.2	2884
COc1ccc(C(=O)NCC(=O)OCC(=O)NC23CC4CC(CC(C4)C2)C3)cc1	7	9	-2	·	-8	6.0	4023
Cc1cc(O)c(S(=O)(=O)c2ccccc2)c(C)c1NS(=O)(=O)c1ccccc1	-2	7	-7	13	-6	12	4833
ON=C1CCC2CN(C3CCCCC3)CC2C1 (configuration not stated)	-1	2	5	·	·	12	·
NC(=O)CC(NC(=O)Cc1ccc(Br)cc1)c1ccc(NCC2CC2)c([N+](=O)[O-])c1 (configuration not stated)	13	11	-19	2	-3	5.3	2880
COCCN(CC(=O)NCc1ccccc1)C(=O)CCC(=O)Nc1ccccn1	·	·	4	-2	-15	1.1	4263
COc1ccc(NC(=O)c2[nH]c(C)c(C(C)=O)c2C)cc1Cl	·	·	6	-14	-13	6.2	4044
CC1CCCC(=NNC(=O)c2ccccc2-n2cccc2)C1 (configuration not stated)	0	0	-6	·	·	-2.4	·
Cc1ccc(C(=O)Cn2c(C(=O)/C=C/c3ccccc3)nc3ccccc32)cc1	13	11	3	-2	-6	6.8	9086
CC(=O)N1CCN(c2ccc(NC(=O)C=Cc3ccccc3)cc2)CC1	4	1	8	·	·	5.7	·
CC(C)CC(=O)Nc1nnc(-c2ccco2)s1	-2	6	-15	-4	-44	-0.3	5343
Cc1cc(OC(C)C(=O)Nc2cccnc2)ccc1Cl (configuration not stated)	1	-4	2	-13	-23	1.1	4629
O=C(Nc1cc(Cl)ccc1-n1cncn1)c1cn2ccccc2n1	6	-3	7	2	-13	4.4	3835
Cn1c(=O)c2c(nc(NCc3ccccc3)n2CC(=O)NCc2ccccc2)n(C)c1=O	12	1	-6	1	-23	-18	3327
CCCSCCCNC(=O)c1ccc(NC(=O)C2=CSCCO2)cc1	-3	8	0	-1	-22	2.6	5224
COc1cc(C2NC(=O)NC(C)=C2C(C)=O)cc(OC)c1OC (configuration not stated)	1	0	5	3	-10	10	4234
CC(=O)Nc1ccc(NC(=O)C(C)OC(=O)CCCOc2ccc(Cl)cc2C)cc1 (configuration not stated)	1	-5	6	-3	-12	0.6	·
CN(C)C1(CNC(=O)C2CCC(=O)N(Cc3ccc(Cl)cc3)C2)CCCCC1 (configuration not stated)	-5	-4	6	9	-34	1.3	·
Cc1ccccc1NCC(=O)N/N=C/C(Br)=C/c1ccccc1	·	·	·	3	-13	·	8866
O=[N+]([O-])C(=C1Nc2ccccc2N1)C(Cl)=C(Cl)Cl	0	5	0	7	-13	16	3331
Cn1c(N=Cc2ccc3c(c2)OCO3)nc2ccccc21	-1	12	7	·	·	4.3	·
O=C(O)[C@]1(S(=O)(=O)c2ccccc2)C[C@@H]2ON=C(c3cccc(Br)c3)[C@@H]2C1	·	·	·	6	-4	·	2975
COc1ccc(NC(=S)N2CCc3ccccc32)cc1OC	-10	3	0	9	-39	0.3	6070
COc1cccc(CC2(CO)CCCN(Cc3cc4ccccc4[nH]3)C2)c1 (configuration not stated)	1	1	-12	-13	-37	-5.4	5566
O=C(OCC#CCSc1nc2ccccc2s1)c1ccco1	·	·	10	4	-20	6.7	19554*
C/C(COc1ccccc1)=N\NC(=O)c1nnn(-c2nonc2N)c1CSc1ccccc1	·	·	·	1	-5	·	5859
CC12CN3CCN(CC(C3)/C1=N/NC(=O)Nc1ccccc1)C2	·	·	·	10	-23	·	2300
COc1ccc(C(=O)Cn2c(NCCO)nc3ccccc32)cc1	0	0	-1	4	-11	-0.4	4741
O=C(NN=Cc1c[nH]c2ccccc12)c1cccc(O)c1	0	9	11	·	·	3.2	·
COc1ccc(C(=O)C2CCCN(Cc3ccc(C)s3)C2)cc1OC (configuration not stated)	4	-1	1	-2	-42	2.0	4323
COc1ccc(C2CC(=O)C=C(O)C2)cc1 (configuration not stated)	6	8	4	10	-23	3.0	1994
Cc1nc2ccccc2c(=O)n1Nc1cccc(Cl)c1	7	5	0	8	-7	2.7	2648
COc1ccc(C(=O)NC(CCSC)C(=O)NCc2nnc3ccccn23)cc1 (configuration not stated)	-2	1	4	·	-10	0.0	6927
CCOC(=O)C1CCCN(C(=O)c2cccc(S(=O)(=O)N3CCOCC3)c2)C1 (configuration not stated)	4	3	3	-3	-6	8.3	4050
O=C(NN=Cc1ccc(F)cc1)c1cc[n+]([O-])cc1	-3	-1	1	·	·	2.0	·
Cn1c(=O)c(C(=O)CN2CCN(Cc3ccc4c(c3)OCO4)CC2)c(N)n(Cc2ccccc2)c1=O	7	8	14	2	-4	1.6	5559
COc1ccc(CCNc2ncnc3sccc23)cc1OC	4	16	2	16	-17	7.4	3931
OCCN1CCN(CC(O)COc2ccc3c(c2)OCO3)CC1 (configuration not stated)	·	·	-3	-6	8	2.7	2759
Cc1ccsc1C(=O)OCC(=O)N(C)c1c(N)n(Cc2ccccc2)c(=O)[nH]c1=O	·	·	·	-12	-18	·	6469
Cc1cccc(NC(=S)N(C)Cc2cn(C)c3ccccc23)c1	5	5	6	2	-7	4.9	8524
COc1cccc(CNC(=O)C2CC(=O)N(C3CCCCCCC3)C2)c1 (configuration not stated)	7	-3	8	3	-4	-0.8	5723
c1ccc(Oc2cc(-c3ccccc3)ncn2)cc1	·	·	9	-4	-26	-6.2	2826
Cc1ccc(S(=O)(=O)NCCS(=O)(=O)N2CCN(c3ccc(F)cc3)CC2)cc1	4	0	9	4	-11	-0.3	3921
N#CCSc1nnc(-c2ccccc2)c(-c2ccccc2)n1	8	8	26	3	-23	0.2	2497
COCCNC(=O)/C(C#N)=C/C(C)=C/c1ccccc1	14	3	6	-4	-5	7.3	2426
Cc1cc(C)cc(N2C(=O)C3CCCN3C2=S)c1 (configuration not stated)	2	-1	10	9	-9	2.5	3773
O=C(/C=C/c1ccc([N+](=O)[O-])cc1)Oc1ccc(C=NNC(=O)c2ccncc2)cc1	15	1	1	·	·	6.4	·
Nc1c(Nc2ccccc2)c2ccccc2oc1=O	4	9	6	0	-14	3.4	13003
COc1cc(SC)ccc1C(=O)N(Cc1ccccc1)c1ccccc1	0	-5	-12	5	-5	2.9	4921
Cc1ccc(C=NNC(=O)c2ccc(Cn3cc(Br)c([N+](=O)[O-])n3)o2)o1	4	-1	15	·	·	6.7	·
CCOc1c2ccc(C(=O)NC(C)C3CCCCC3)cc2nn1CCOC (configuration not stated)	2	7	-2	·	·	4.0	·
Cc1nn(-c2ccccc2)c(C)c1C=NNc1nc2ccccc2[nH]1	-3	-9	1	·	·	-6.0	·
CC(=NOCC(=O)OCC(=O)NCc1ccccc1)c1ccc2c(c1)OCO2	-16	0	-4	·	·	0.7	·

One compound at a time, from the list above. Order of values: Mtb hypoxia inh | Mtb hypoxia inh growth | Sa ugtP lethal | BJeLR lethal | PrP 5UTR inh | Sa RN4220 lethal | Bead autofluor
`CCOc1c2ccc(C(=O)NC(C)C3CCCCC3)cc2nn1CCOC` (configuration not stated) as listed: 2 | 7 | -2 | · | · | 4.0 | ·
`Nc1c(Nc2ccccc2)c2ccccc2oc1=O` as listed: 4 | 9 | 6 | 0 | -14 | 3.4 | 13003
`COc1ccc(C2CC(=O)C=C(O)C2)cc1` (configuration not stated) as listed: 6 | 8 | 4 | 10 | -23 | 3.0 | 1994
`CC(=O)N1CCN(c2ccc(NC(=O)C=Cc3ccccc3)cc2)CC1` as listed: 4 | 1 | 8 | · | · | 5.7 | ·
`C/C(COc1ccccc1)=N\NC(=O)c1nnn(-c2nonc2N)c1CSc1ccccc1` as listed: · | · | · | 1 | -5 | · | 5859

Continued:
SMILES	Mtb hypoxia inh	Mtb hypoxia inh growth	Sa ugtP lethal	BJeLR lethal	PrP 5UTR inh	Sa RN4220 lethal	Bead autofluor
CCc1ccc(NS(=O)(=O)c2cccc3nsnc23)cc1	12	-2	7	-1	-14	3.3	3997
Cc1cc(NC(=O)COC(=O)C(Nc2ccc(C(F)(F)F)cc2Cl)C(C)C)no1 (configuration not stated)	4	6	-15	-5	-4	-16	4203
CCCCc1c(C)c2ccc(OCC(C)=O)cc2oc1=O	·	·	7	·	-83	-1.0	4859
COc1cc(C(=O)N2C[C@H]3C[C@@H](C2)c2cccc(=O)n2C3)cc(OC)c1OC	·	·	-24	-3	-13	-1.8	5485
CCSc1ncc(Cl)c(C(=O)Nc2ccccc2)n1	·	·	·	-2	-4	·	2492
COC(=O)c1cncc(O)c1	2	3	0	-1	2	-4.5	2959
CCN1CC2([N+](=O)[O-])CC=C(OC)C([N+](=O)[O-])(C1)C2 (configuration not stated)	·	·	·	6	-5	·	2041
COC1=C/C(=C/c2c(N)n3nc(CC(=O)N4CCCCC4)sc3nc2=O)C=CC1=O	·	·	·	-8	-1	·	4097
Cc1cc2c3c(c1)C(C)(c1ccccc1)CC(C)(C)N3C(=O)C21C(C#N)=C(N)OC2=C1C(=O)CC(C)(C)C2 (configuration not stated)	4	16	-32	·	-23	1.9	10163
COc1cccc(-c2nc(CCl)cs2)c1	7	2	2	1	-12	3.6	3090
COC(=O)C1=C(C)NC(=O)/C1=C/c1ccc(CNS(=O)(=O)c2ccc(C)cc2)o1	·	·	·	6	-18	·	5054
O=C(NCc1ccccc1)c1ccc(-c2ccccc2F)o1	-6	6	-8	-1	-72	-1.1	12675
CN(C)c1ccc(NC(=O)c2cnsn2)cc1	1	0	2	-4	9	4.7	4623
CCn1cc(/C=C(\NC(=O)c2ccc(OC)c(OC)c2)C(=O)NCCN2CCOCC2)c2ccccc21	8	4	7	-10	-2	2.6	4810
COc1cccc(C(=O)OCC(=O)Nc2ccccc2N2CCOCC2)c1	-2	10	-6	5	-22	4.0	10141
Cc1ccc(C(=O)N2CCCC2)c(F)c1F	16	13	7	-9	-18	4.4	24666*
O=C(Nc1ccc(N2CCOCC2)nc1)c1c(F)cccc1F	9	6	0	0	-80	1.5	?
Cc1cc(Cl)c(S(=O)(=O)Nc2cc(S(=O)(=O)N3CCOCC3)ccc2F)cc1OCC(N)=O	5	-8	9	8	0	-1.5	3014
O=C(NNC(=S)NC(=O)c1ccco1)c1ccc(F)cc1	·	·	·	0	-11	·	3763
O=C1NC(Cc2c[nH]c3ccccc23)C(=O)N1c1ccc(F)cc1 (configuration not stated)	·	·	-2	0	-4	-3.2	2957
O=c1c2sccc2nc(SCc2cc(=O)n3cc(Br)ccc3n2)n1Cc1ccccn1	13	6	5	15	-39	16	4350
COC(=O)NN=Cc1ccc(-c2ccc(C)c(Cl)c2)o1	0	-4	-9	·	·	6.7	·
O=C(NCCCn1ccnc1)c1cc2c(s1)CCCCC2	5	9	4	·	-28	3.9	25451*
COc1nc(C)nc2c1sc(=S)n2C	·	·	18	2	-15	11	3624
COc1cccc(Nc2ncnc3nc[nH]c23)c1	3	6	14	7	-16	8.6	5517
CSc1ccccc1NC(=O)Cn1nc([N+](=O)[O-])cc1C	13	4	6	4	-14	2.5	4502
CCc1ccc(NC(=O)Nc2ccc3c(c2)CCC3)cc1	-2	3	-6	9	-47	-0.1	?

Single values from the entries so far.
Result of `COc1cccc(Nc2ncnc3nc[nH]c23)c1` in Mtb hypoxia inh: 3
Result of `O=C(Nc1ccc(N2CCOCC2)nc1)c1c(F)cccc1F` in Mtb hypoxia inh growth: 6

Source: PubChem (several laboratories)
